Kir21 block: inhibitors of mouse Kir2.1 inward-rectifier potassium channel; P35561; HEK293-Kir2.1, FluxOR thallium flux fluorescence; hits give low values; B-score at 10 µM; hit rate 0.85% among 310,000; AID 1672;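 active means fluorescence ratio B-score at or below minus 3 SD of library scores, with starting-brightness B-score within 2 SD, cut at about -4.2 in these data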;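 further: channel flux triggered by added potassium and thallium sulfate stimulus; B-score of peak minus minimum fluorescence over baseline after thallium stimulus; more negative B-score means stronger Kir2.1 block with less thallium influx; some compounds called inactive have numbers as strong as hits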
Target sequence (P35561 whole entry, looked up): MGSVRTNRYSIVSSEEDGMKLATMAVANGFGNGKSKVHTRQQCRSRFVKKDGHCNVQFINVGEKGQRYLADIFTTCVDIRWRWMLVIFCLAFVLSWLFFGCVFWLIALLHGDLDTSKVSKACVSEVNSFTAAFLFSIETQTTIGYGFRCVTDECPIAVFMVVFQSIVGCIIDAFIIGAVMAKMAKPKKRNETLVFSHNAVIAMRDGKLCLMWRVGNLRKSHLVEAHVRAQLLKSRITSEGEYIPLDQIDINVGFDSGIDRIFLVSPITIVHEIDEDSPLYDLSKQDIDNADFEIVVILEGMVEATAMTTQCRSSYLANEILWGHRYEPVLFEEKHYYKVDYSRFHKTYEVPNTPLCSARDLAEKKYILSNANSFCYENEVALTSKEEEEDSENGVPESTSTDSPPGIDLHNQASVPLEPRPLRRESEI
* = called active by the depositor.

`COc1cc(C(=O)Nc2nc(-c3cccs3)cs2)cc(OC)c1OC` gave Kir21 block 2.
Screening COc1ccc(CCNC(=O)Cn2c(=O)oc3ccccc32)cc1OC returned Kir21 block 0.2.
Screening CCCCSC1=N/C(=C/c2ccsc2)C(=O)N1c1ccccc1 returned Kir21 block -0.71.
`CC(C)CCN1C(=O)c2ccc(C(=O)OCn3nnc4ccccc4c3=O)cc2C1=O` gave Kir21 block 1.3.
Screening Cc1ccnc(NS(=O)(=O)c2ccc(NC(=O)/C=C/c3ccccc3)cc2)n1 returned Kir21 block 0.06.
For COc1ccc(OCC(O)CNCc2ccco2)cc1 (stereo unspecified) the results were Kir21 block 2.
Screening COc1ccc(NC(=O)c2ccccc2Cl)cc1NC(=O)CN1CCOCC1 returned Kir21 block 0.22.
COc1ccc(C(=O)c2c[nH]c(C(=O)NCCCN3CCOCC3)c2)cc1 was read as Kir21 block -0.65.
`C/C=N\NC(=O)COc1cc(C)ccc1C` gave Kir21 block 0.1.
For CCc1cc2c(SCC(=O)NC3CCS(=O)(=O)C3)ncnc2s1 (stereo unspecified) the results were Kir21 block -0.58.
For COc1cccc(C(=O)/C=C/Nc2ccc(S(=O)(=O)Nc3ccc(C(C)=O)cc3)cc2)c1 the results were Kir21 block 0.19.
For Cc1ccc(CCNC(=O)C2CCN(C(=O)c3sccc3-n3cccc3)CC2)cc1 the results were Kir21 block 2.4.

Overlap with the part before: 5 entries, followed by the next part.
COc1ccc(C(=O)c2c[nH]c(C(=O)NCCCN3CCOCC3)c2)cc1 was read as Kir21 block -0.65.
`C/C=N\NC(=O)COc1cc(C)ccc1C` gave Kir21 block 0.1.
For CCc1cc2c(SCC(=O)NC3CCS(=O)(=O)C3)ncnc2s1 (stereo unspecified) the results were Kir21 block -0.58.
For COc1cccc(C(=O)/C=C/Nc2ccc(S(=O)(=O)Nc3ccc(C(C)=O)cc3)cc2)c1 the results were Kir21 block 0.19.
For Cc1ccc(CCNC(=O)C2CCN(C(=O)c3sccc3-n3cccc3)CC2)cc1 the results were Kir21 block 2.4.
CC(C)CC(=O)Nc1ccc2c(c1)oc1ccccc12 was read as Kir21 block -1.
Screening COc1cc(C(=O)NCc2ccc(F)cc2)cc(Cl)c1OC returned Kir21 block -1.7.
For N#Cc1c(SCC(=O)O)nc(N2CCOCC2)c2c1CCCC2 the results were Kir21 block 0.46.
Cc1cc(C)c2nc(N3CCC(C(=O)N4CCCC4)CC3)sc2c1 was read as Kir21 block -0.15.
Screening Cc1ncc([N+](=O)[O-])n1CCOC(=O)c1cc(Cl)cc(Cl)c1N returned Kir21 block 2.9.
COc1cc(C=O)ccc1OCC(=O)NC(C)(C)C was read as Kir21 block 0.24.
C1CCN(c2nc3nonc3nc2NCC2CCOCC2)CC1 was read as Kir21 block 0.
For COc1ccc(S(=O)(=O)N2CCN(c3ccc4nnc(-c5ccccc5)n4n3)CC2)cc1 the results were Kir21 block 1.3.
O=C(O)c1ccc(Cl)c(S(=O)(=O)Nc2ccc(S(=O)(=O)Nc3cccc(Cl)c3)cc2)c1 was read as Kir21 block 1.4.
For CCOc1cc(/C=C2\C(=O)ON=C2c2ccccc2)ccc1OC the results were Kir21 block 0.47.
`CC(Sc1nnc(CN2CCCC2)n1Cc1ccccc1)C(=O)Nc1ccc(F)cc1` (stereo unspecified) gave Kir21 block 0.14.
Cc1ccccc1NC(=O)Cn1nnc2c(cnn2-c2ccc(F)cc2)c1=O was read as Kir21 block -0.02.
Screening Nc1nonc1-n1nnc(C(=O)N/N=C/c2ccc(Cl)cc2Cl)c1CN1CCOCC1 returned Kir21 block 0.
Screening O=C(NCc1ccccn1)c1c(Cl)cccc1Cl returned Kir21 block 0.04.
`COc1ccc(CN2CCNC(=O)C2CC(=O)N(C)CC2CCOCC2)cc1OC` (stereo unspecified) gave Kir21 block 0.9.
`CN(CC(=O)NC1CCCCCCC1)S(=O)(=O)c1cnc[nH]1` gave Kir21 block 1.5.
For O=C(Nc1ccc(Cl)cc1)N1CCN(c2ccccc2)CC1 the results were Kir21 block -0.29.
Screening CC(C)c1ccc(/C=N/NC(=O)c2ccccn2)cc1 returned Kir21 block -1.3.
`CC(C)(C)CC(C)(C)NC(=O)Nc1cccc([N+](=O)[O-])c1` gave Kir21 block -0.08.
`COc1cc(/C=C2\SC(=S)N(C(C(=O)O)c3ccccc3)C2=O)cc(OC)c1OC` (stereo unspecified) gave Kir21 block 0.33.
For CCn1cc(C(=O)N(C)c2ccc(OC)cc2OC)c2cc(OC)c(OC)cc2c1=O the results were Kir21 block -1.1.
Screening Cc1cc(OCC(=O)NCc2cccnc2)c2c(C)c(C)c(=O)oc2c1 returned Kir21 block 0.09.
For COc1ccc(OCc2cc(C(=O)N[C@H]3CCCCNC3=O)no2)c(Cl)c1 the results were Kir21 block 1.4.
For O=S(=O)(/N=C(/c1ccccc1)N1CCCCC1)c1ccccc1 the results were Kir21 block 0.62.

Reprinted from the part before: seven compounds; new compounds follow.
Screening CC(C)c1ccc(/C=N/NC(=O)c2ccccn2)cc1 returned Kir21 block -1.3.
`CC(C)(C)CC(C)(C)NC(=O)Nc1cccc([N+](=O)[O-])c1` gave Kir21 block -0.08.
`COc1cc(/C=C2\SC(=S)N(C(C(=O)O)c3ccccc3)C2=O)cc(OC)c1OC` (stereo unspecified) gave Kir21 block 0.33.
For CCn1cc(C(=O)N(C)c2ccc(OC)cc2OC)c2cc(OC)c(OC)cc2c1=O the results were Kir21 block -1.1.
Screening Cc1cc(OCC(=O)NCc2cccnc2)c2c(C)c(C)c(=O)oc2c1 returned Kir21 block 0.09.
For COc1ccc(OCc2cc(C(=O)N[C@H]3CCCCNC3=O)no2)c(Cl)c1 the results were Kir21 block 1.4.
For O=S(=O)(/N=C(/c1ccccc1)N1CCCCC1)c1ccccc1 the results were Kir21 block 0.62.
`Cc1nc(SCn2nnc3ccccc3c2=O)nc(C)c1C` gave Kir21 block -2.8.
For O=C(COC(=O)c1ccc([N+](=O)[O-])o1)Nc1cccc(S(=O)(=O)N2CCCCC2)c1 the results were Kir21 block 2.5.
`COc1ccc(C=O)cc1CSc1ccccn1` gave Kir21 block 1.
`Cc1c(C)[n+](=O)c(-c2ccco2)c(C)n1[O-]` gave Kir21 block -0.03.
For NC(=O)c1ccsc1NC(=O)COC(=O)/C=C/c1ccc([N+](=O)[O-])cc1 the results were Kir21 block -2.3.
For CC(NC(=O)c1ccc(C(C)(C)C)cc1)C(=O)O (stereo unspecified) the results were Kir21 block -1.1.
`Cc1csc(NC(=O)c2cc(-c3ccncc3)nc3ccccc23)n1` gave Kir21 block 0.17.
For CCS(=O)(=O)N1Cc2ccccc2CC1C(=O)Nc1nc2ccc(F)cc2s1 (stereo unspecified) the results were Kir21 block -1.5.
For COc1ccc(-c2nc(C#N)c(N3CCCCCC3)o2)cc1OC the results were Kir21 block -1.2.
`COCCCN1C(=O)C(=O)/C(=C(/O)c2ccc(OCC(C)C)cc2C)C1c1cccnc1` (stereo unspecified) gave Kir21 block 1.6.
Screening O=C(NCc1ccccc1Cl)c1ccc(-c2ccccc2)cc1 returned Kir21 block 1.2.
`CCOC(=O)c1c(C)n(C)c2cc(Br)c(OC)cc12` gave Kir21 block 2.1.
Screening Cc1nn(CC(=O)N2N=C(C(F)F)CC2(O)C(F)F)c(C)c1[N+](=O)[O-] (stereo unspecified) returned Kir21 block -1.8.
For CC(C)c1ccc(CN2CCC(C(=O)NCc3cccnc3)CC2)cc1 the results were Kir21 block 1.1.
O=C(NCc1cccs1)c1ccc(Cl)s1 was read as Kir21 block -0.29.
`CCCCCCCCNC(=O)CC(NS(=O)(=O)c1ccc(NC(C)=O)cc1)C(C)C` (stereo unspecified) gave Kir21 block 0.29.
`CCOc1ccc(N(CC(=O)N2CC=C(c3ccccc3)CC2)S(=O)(=O)c2c(C)noc2C)cc1` gave Kir21 block -1.6.
For C#CCOc1c(Br)cc(/C=C2/C(=O)ON=C2C)cc1OCC the results were Kir21 block 1.9.
Cc1occc1C(=O)NNC(=O)C(c1ccccc1)c1ccccc1 was read as Kir21 block -0.49.
Screening O=S(=O)(NCCCO)c1ccc2c(c1)Cc1cc(S(=O)(=O)NCCCO)ccc1-2 returned Kir21 block -2.2.
`COc1ccc(C(=O)C2CCCN(C(=O)CCC3=NNC(=O)CC3)C2)c(C)c1` (stereo unspecified) gave Kir21 block 0.92.
O=C(NCc1cccnc1)c1ccc(-c2cc3ccccc3oc2=O)cc1 was read as Kir21 block 0.22.
Screening O=C(Nc1ccccc1)NC(Cc1ccc(O)cc1)C(=O)O (stereo unspecified) returned Kir21 block -1.7.
`CCOC(=O)c1cc(NC(=O)/C=C\C(=O)O)ccc1Cl` gave Kir21 block -1.6.
Screening Nc1ccc(Cc2nc3cc4ccccc4cc3[nH]2)cc1 returned Kir21 block -0.02.
CSCCC(NS(=O)(=O)c1ccccc1)C(=O)OCc1cc(=O)oc2cc(O)ccc12 (stereo unspecified) was read as Kir21 block 0.3.
`CCOC(=O)c1sc(S(C)=O)c2c1CCc1conc1-2` (stereo unspecified) gave Kir21 block -1.6.
O=C(CN1CCN(c2ccccc2F)CC1)c1ccc2cc[nH]c2c1 was read as Kir21 block 0.99.
Screening Cc1nnsc1C(=O)N/N=C/c1ccccc1 returned Kir21 block -0.01.
For Cc1cc(C)cc(N2CCN(C(=O)N3CCOCC3)CC2)c1 the results were Kir21 block 1.5.
CCCOC(=O)c1ccc(Nc2nc(C)cc(=O)[nH]2)cc1 was read as Kir21 block -0.48.
Screening CCCc1nnc(NC(=O)c2cc(OC)cc(OC)c2)s1 returned Kir21 block -0.34.
Screening COc1ccc(-n2ncc3c(NCc4ccccn4)ncnc32)cc1 returned Kir21 block 0.08.
O=C(O)c1ccc(-c2noc(-c3cccc(F)c3)n2)cc1 was read as Kir21 block 2.
For Cc1cccc(-n2cc(CN3CCN(C(=O)c4ncn[nH]4)CC3)c(-c3cccc(F)c3)n2)c1 the results were Kir21 block -1.
Screening O=C(COc1ccc(Br)cc1)Nc1ccc(S(=O)(=O)Nc2ccccn2)cc1 returned Kir21 block 1.6.
CC1(C)CC(=O)c2ccc(O)cc2O1 was read as Kir21 block 0.48.
For Cc1ccc(S(=O)(=O)N(C)C)cc1NC(=O)COC(=O)C1(c2ccccc2)CC1 the results were Kir21 block 1.3.
For COc1cc2cc3c(N)c(C(=O)NCc4ccco4)sc3nc2cc1OC the results were Kir21 block -0.02.
For CCCCN(c1ccccc1)c1ncnc(N)c1[N+](=O)[O-] the results were Kir21 block -0.37.
O=C(CCCNC(=O)c1ccc(Cl)cc1)Nc1cccc(F)c1 was read as Kir21 block 0.1.
Screening COC(=O)c1[nH]c2ccc(F)cc2c1NC(=O)Nc1ccc(OC)cc1 returned Kir21 block -0.27.
COc1cccc(CNC(=O)CCNS(=O)(=O)c2ccc(Br)s2)c1 was read as Kir21 block -0.49.
N#Cc1cccc(NC(=O)Cc2ccsc2)c1 was read as Kir21 block 1.2.
Cc1cc(CN2CCC(N3CCC(C(=O)NC4CC4)CC3)CC2)cc(C)c1O was read as Kir21 block -0.93.
Screening Cc1cc(C)c(S(=O)(=O)c2ccc(F)cc2C)c(Cl)n1 returned Kir21 block -0.61.
`COc1ccccc1C(=O)NC(=S)Nc1ccccc1N1CCCCC1` gave Kir21 block -0.33.
Screening c1ccc(-n2nnc3cnccc32)cc1 returned Kir21 block 0.26.
For Cc1cc(OCc2cc(C(=O)N3CCN(C)C(=O)[C@@H]3C)no2)cc(C)c1Cl the results were Kir21 block 0.52.
Screening CCC(CC)c1nnc(NC(=O)CN2C(=O)c3ccccc3C2=O)s1 returned Kir21 block 1.5.
Screening COc1ccc(CNC(=O)Cn2cccc2C(=O)c2ccccc2)cc1 returned Kir21 block 1.2.
Screening CC1(C)OC(=O)C(=CNc2cccc(C(=O)O)c2)C(=O)O1 returned Kir21 block 0.11.
Cc1ccc(N2CCN(C(=O)N3CCCC3)CC2)cc1C was read as Kir21 block 1.3.
Cc1noc(C)c1C(=O)NC(C)c1ccc(Cl)cc1Cl (stereo unspecified) was read as Kir21 block -0.01.
CN1CCN(C(=O)c2ccc(CSc3nc4ccncc4n3Cc3ccc(F)cc3)cc2)CC1 was read as Kir21 block -0.34.
`CCCn1c(Cc2ccccc2)nnc1SCC(=O)N1CCOCC1` gave Kir21 block -0.01.
Screening COc1ccc(NC(=O)CSc2nn3c(=O)c(C)nnc3s2)cc1 returned Kir21 block -0.09.
CC(=O)C1=C(O)C(=O)N(CCCN2CCOCC2)C1c1ccccc1[N+](=O)[O-] (stereo unspecified) was read as Kir21 block 1.3.
Screening O=C(CN1CCCCC1)Nc1cccc(-n2cnnn2)c1 returned Kir21 block 0.68.
For CC(=O)N/N=C(\C)CC(=O)Nc1ccc2c(c1)OCCO2 the results were Kir21 block -0.11.
`N/C(=N\OC(=O)Oc1ccccc1)c1ccc([N+](=O)[O-])cc1` gave Kir21 block 0.33.
Cc1coc2c1c(C)cc1oc(=O)c(CC(=O)NCC(=O)NCC(=O)O)c(C)c12 was read as Kir21 block 0.68.
Screening Cc1nn(-c2ccc(F)cc2)c(Cl)c1/C=N/NC(=O)c1ccc(O)cc1 returned Kir21 block 0.71.
Screening CCOC(=O)c1nc(C)sc1-c1ccnn1S(=O)(=O)c1ccc(Cl)cc1Cl returned Kir21 block -2.9.
Screening O=C(Nc1ccc(F)cc1F)c1cccc(C(=O)Nc2ccc(F)cc2F)n1 returned Kir21 block -2.1.
CN(C)c1ccc(CN(C(=O)/C=C/c2ccco2)C2CCS(=O)(=O)C2)cc1 (stereo unspecified) was read as Kir21 block 0.
For COc1ccc(NCCNc2ccc(OC)cc2)cc1 the results were Kir21 block 0.
Screening CN1C(=O)C2(c3ccccc31)c1c(oc3ccccc3c1=O)C(=O)N2CCO (stereo unspecified) returned Kir21 block 0.04.

This is a subset, and most or all hits are left out here.
